# High-throughput results: PubChem BioAssay, National Center for Advancing Translational Sciences (NCATS)
# LASV entry inh: inhibitors of Lassa virus binding or cell entry. Lassa virus pseudotype entry inhibition, cell reporter; control for the full effect not named in the record. Potency, µM (series often up to 37.9 µM), inactives show at the top dose activity change, negative = inhibition, actives largely listed as inhibitors. hit rate 1.2% among 300,000; active means well fitted inhibition curve with a large enough effect; inconclusive means small, poorly fitted or top-dose-only effect, or effect the other way; inactive means flat fitted curve, though single readings scatter; tested in HEK293 cells; also: % is scaled to controls: 0 for no effect and ±100 for the full control effect; nearly all actives have a fitted effect of over 50% in size; luciferase read-out
# SARS PLP yeast: SARS-CoV PLP inhibition in yeast. S. cerevisiae expressing SARS-CoV PLpro, growth rescue; control for the full effect not named in the record. Potency, µM (series often up to 32.9 µM), inactives show at the highest dose activity, positive = growth rescue. hit rate 0.19% among 330,000. AID 485353; active means well fitted rising curve with a large enough effect; inconclusive means small, poorly fitted or top-dose-only effect; inactive means no such curve, though single readings can be large or run the other way; also: 0% is about no effect; nearly all actives have a fitted effect of over 55% in size; growth read by luminescence after 48 h
# RE007 growth inh: less growth of the S. pombe RE007 Vpr strain; AID 651644; Potency, µM (top dose mostly 92.2 µM), for inactives: top-dose activity change, negative = less growth; S. pombe RE007 Vpr strain, BacTiter-Glo ATP luminescence, 24 h; control for the full effect not named in the record; hit rate 0.21% among 360,000; active = well fitted falling curve with a large enough effect; inconclusive = small, poorly fitted or top-dose-only effect; inactive = no such curve, though single readings can be large or run the other way;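 also: % is scaled to controls: 0 for no effect and ±100 for the full control effect; nearly all actives have a fitted effect of over 50% in size; the assay follows cell death caused by Vpr and the record does not say whether a fall means rescue or toxicity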
#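 Fission yeast RE007 carrying one integrated HIV-1 vpr copy, seeded at OD 0.01 in PMG+AL medium with 23 nL pinned compound. Grown 24 h at 30 degrees; viability read by BacTiter-Glo luminescence after 5 min.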
# Cruzain inh noDet: inhibitors of Trypanosoma cruzi cruzain without detergent; P25779; purified cruzain, Z-FR-AMC fluorescence, no detergent; Potency, µM, for the others: max response, negative = inhibition, usual class: inhibitors; hit rate 2.3% among 200,000; AID 1476;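 also: plate controls were enzyme without inhibitor for no effect and buffer without enzyme for full effect; nearly all actives have a fitted effect of over 40% in size; top concentration of the series not given in the record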
# Target sequence (P25779 123-467 limits assumed): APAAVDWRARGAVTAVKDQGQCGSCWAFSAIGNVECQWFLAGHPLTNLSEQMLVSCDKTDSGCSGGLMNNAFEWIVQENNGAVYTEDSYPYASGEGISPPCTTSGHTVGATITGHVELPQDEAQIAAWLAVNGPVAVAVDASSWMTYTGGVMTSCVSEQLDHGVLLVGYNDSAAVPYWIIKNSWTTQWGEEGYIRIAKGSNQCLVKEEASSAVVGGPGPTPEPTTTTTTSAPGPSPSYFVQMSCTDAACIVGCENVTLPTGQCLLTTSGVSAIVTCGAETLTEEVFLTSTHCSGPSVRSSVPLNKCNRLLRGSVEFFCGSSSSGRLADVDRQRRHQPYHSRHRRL
#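 Detergent-free condition (0.00005% Triton X-100) in acetate buffer pH 5.5 with DTT. 1.5 nM enzyme and compound were pre-mixed 15 min, then 2 uM Z-FR-AMC substrate added; reaction progress from fluorescence change between first and third reads (60 s).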
# Marburg entry inh: blocks Marburg virus binding to or entry into cells; Marburg virus pseudotyped entry inhibition, cell reporter; control for the full effect not named in the record; about a third of the inactives were read at about 46 µM; Potency, µM (top dose mostly 37.8 µM), inactives show top-dose activity change, negative = inhibition, hits mostly inhibitors; hit rate 1.8% among 300,000; active = well fitted inhibition curve with a large enough effect; inconclusive = small, poorly fitted or top-dose-only effect, or effect the other way; inactive = flat fitted curve, though single readings scatter; tested in HEK293 cells; about a fifth of its hits are not listed in these tables; also: % is scaled to controls: 0 for no effect and ±100 for the full control effect; luciferase read-out
# NS1 function inh: influenza NS1 inhibition | S. cerevisiae slowed by influenza A NS1, growth recovery by OD600 | Potency, µM (highest dose often 46.1 µM), inactives show at the highest dose activity, positive = more growth | hit rate 0.4% among 270,000 | AID 2326; active means well fitted rising curve with a large enough effect; inconclusive means small, poorly fitted or top-dose-only effect; inactive means no such curve, though single readings can be large or run the other way; also: nearly all actives have a fitted effect of over 50% in size
#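 Read-out: OD600 growth recovery of NS1-expressing budding yeast. Cells grown overnight at 30C in -URA glucose medium, washed, resuspended and diluted 1:100 in 2% galactose assay medium, pH 6.0. Same strain lacking NS1 served as positive control.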
# StopGo reporter: FMDV 2A StopGo reporter, luciferase signal. hit rate 1.2% among 410,000. AID 1159524. human cells with a luciferase reporter of 2A StopGo recoding; control for the full effect not named in the record. Potency, µM (highest dose often 57.9 µM), for the others: at the highest dose signal change, negative = less light; active = well fitted falling curve with a large enough effect; inconclusive = small, poorly fitted or top-dose-only effect; inactive = no such curve, though single readings can be large or run the other way; tested in HEK293T cells; also: % is scaled to controls: 0 for no effect and ±100 for the full control effect; nearly all actives have a fitted effect of over 45% in size; luciferase light after 4 h
# Cruzain Triton: inhibitors of Trypanosoma cruzi cruzain with detergent | P25779 | purified cruzain, Z-FR-AMC fluorescence, 0.01% Triton | Potency, µM, for inactives: max response, negative = inhibition, hits mostly inhibitors | hit rate 0.43% among 200,000;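 also: plate controls were neutral wells for no effect and buffer without enzyme for full effect; nearly all actives have a fitted effect of over 40% in size; top concentration of the series not given in the record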
#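 15 min RT preincubation of 1.5 nM cruzain with compound, then 2 uM Z-FR-AMC added; kinetic AMC fluorescence, 60 s delta. Triton X-100 0.01%, pH 5.5.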
# The depositor's hits bear a star; ? = inconclusive; / = not tested or not shown; & = joins results of further samples; [ ] = dose if it differs, or a comment. Unless noted, calls follow the shape of the dose curve; as a rule, active = well fitted curve in the direction sought with a large enough effect; inconclusive = small, poorly fitted or top-dose-only effect, or another doubt; inactive = no such curve, though single readings can be large; an effect the other way counts as inactive or inconclusive. Potency is read from the fitted curve at half-maximal effect. Compounds were not picked by outcome. About 4.8% of those tested had a hit in this group.
SMILES	NS1 function inh	Cruzain Triton	StopGo reporter	LASV entry inh	SARS PLP yeast	Cruzain inh noDet	Marburg entry inh	RE007 growth inh
COc1cc(C2C(C#N)=C(C)NC3=C2C(=O)CC(C)(C)C3)ccc1O (stereo not drawn)	4%	-13%	2%	12%	7%	-3%	13%	-4%
O=C(Nc1ccnn1C1CCN(Cc2ccc(CO)o2)CC1)c1ccccc1	23%	/	-3%	25%[46.1 µM]	3%	/	23%[46.1 µM]	3%
CCn1c(=O)n(-c2ccc3c(c2)OCO3)c2nc(-c3cc(OC)ccc3OC)nc(C(N)=O)c21	/	1.0%	?	12%[46.1 µM]	/	-7%	?	/
CC(=O)N1CCC2(CC1)NC(=O)N(c1ccccc1)N2	/	/	-1%	?	-2%	/	?	395%
Cc1nn(C)cc1/C=C1/CC2C3CC=C4CC(O)CCC4(C)C3CCC2(C)C1=O (stereo not drawn)	/	/	-17%	-3%	/	/	-7%	1%
CCOc1cc(C(=O)CCC(=O)OCC(=O)NC(=O)NCC(C)C)ccc1O	-5%	/	-8%	21%[46.1 µM]	-3%	/	-3%[46.1 µM]	-18%
CCCCOc1ccc(C(=O)N2CCCCC2CCN2CCOCC2)cc1 (stereo not drawn)	/	1.2%	-7%	?	/	-10%	12%[46.1 µM]	/
Cc1ccc(-n2c(N)cc(=O)nc2SCC(=O)NC2CCCCC2)cc1C	1%	/	-3%	?	0%	/	?	-17%
Cc1ccc(S(=O)(=O)N2CCCCC2)cc1NC(=O)c1ccc2c(=O)n3c(nc2c1)CCCCC3	20%	-6.1%	/	16µM*	11%	24%	?	/
O=[N+]([O-])c1cc(/C=N/Nc2nc(N3CCOCC3)nc(N3CCOCC3)n2)ccc1Cl	2%	-2.6%	-18%	-5%	1%	5%	?	2%
S=C(NCc1ccccc1)Nc1cccc2cnccc12	13%	/	?	/	-4%	/	?	2%
Cc1nnsc1C(=O)Oc1ccccc1Cl	/	-2.1%	-9%	23%[46.1 µM]	/	-7%	?	/
S=c1nc[nH]c2c1sc1nc(N3CCOCC3)c3c(c12)CCCC3	/	/	?	-2%	1%	/	-10%&-10%[46.1 µM]	18%
CCOC(=O)C1CCCN(C(=O)c2cn(C)c3ccc(S(=O)(=O)N4CCCC4)cc3c2=O)C1 (stereo not drawn)	-8%	1.2%	43%[activator]	5%	5%	-2%	23%	10%
CN(CCOc1ccccc1)CCOc1ccccc1	7%	/	-10%	?	26%	/	-3%[46.1 µM]	0%
CCCOC(=O)Cn1c(=O)c2cc3c(=O)n(CC(=O)OCCC)c(=O)c3cc2c1=O	3%	2.6%	1%	-1%	0%	3%	10%	-4%
Cc1ccc(/C=N\NC(=O)c2cncc(Br)c2)o1	0%	-8.1%	-10%	4%	1%	-17%	5%	5%
CCCS(=O)(=O)N1CCN(C2Cc3ccccc3C2)CC1	5%	/	-9%	/	1%	/	/	8%
Cc1ccccc1OCC(O)CN (stereo not drawn)	0%	1.7%	9%	5%	0%	0%	19%	-9%
CCN1CC(CNCc2cn(-c3ccc(OC)cc3)nc2-c2ccccc2Cl)CC1=O (stereo not drawn)	-2%	/	0%	2%	1%	/	?	-12%
Fc1cccc(NC(=S)NCC(c2cccnc2)N2CCOCC2)c1 (stereo not drawn)	3%	-1.8%	-5%	8%	-35%	-1%	2%	-7%
CCCn1cnc2c(SCc3ccccc3)nc(N)nc21	/	/	29%	-2%[46.1 µM]	/	/	?	4%
Cc1ccc(NC(=O)CCc2nc3ccccc3c(=O)[nH]2)cc1S(=O)(=O)N1CCOCC1	/	/	-28%	-20%	2%	/	0%[46.1 µM]	-2%
CN(C)c1nc(SCc2ccc(Cl)cc2)nc2c1CCCC2	-33%	-1.8%	?	-12%	-28%	1%	-25%	-15%
COc1cccc(/C=N/Nc2c(Cl)cncc2Cl)c1O	-49%	/	20%	?	-6%	/	?	-4%
CC(=O)C(C(C)=O)C(c1ccccc1)c1nc2ccccc2[nH]c1=O (stereo not drawn)	0%	/	-3%	/	1%	/	/	6%
O=S(=O)(N=S(N1CCCCC1)N1CCCCC1)c1ccccc1	-7%	0.2%	18%	?	-9%	6%	2%	-3%
COc1ccc2nc(NC(=O)CSCC(=O)Nc3cc(C)on3)sc2c1	/	/	29%	?	1%	/	?	-9%
Cc1ccc2[nH]cc(C(c3ccccc3)c3cccs3)c2c1 (stereo not drawn)	/	-3.8%	?	-11%[46.1 µM]	/	-23%	?	/
COc1ccc2c(c1)CC1(CN2C)C(=O)NC(=O)N(c2ccc(C)cc2)C1=O (stereo not drawn)	3%	0.4%	0%	6%	1%	12%	-15%	-3%
c1ccc(Nc2nc(-c3ccncc3)cs2)cc1	-20%	-0.3%	8%	?	-53%	13%	?	-5%
Cc1cccc(-n2c3nc(=O)[nH]c(=O)c-3cc3c(C)nn(-c4ccccc4)c32)c1C	5%	-3.0%&-28%	-12%&-21%	15%[46.1 µM]	8%	?	-1%[46.1 µM]	-12%
CCn1c(C)nc2cc(C(=O)NNC(=O)[C@@H](NC(=O)c3cc(OC)cc(OC)c3)C(C)C)ccc21	/	/	34%[activator]	17%	1%	/	-17%	-15%
CC(=O)NC(C)c1nc2ccccc2n1CC(=O)NC(C)CCc1ccccc1 (stereo not drawn)	/	/	-3%	-7%[46.1 µM]	-2%	/	-22%[46.1 µM]	-10%
C(=N/N1CCN(c2ccccc2)CC1)/c1cccs1	4%	-2.1%	69%[activator]	-3%	-8%	?	?	-16%
CN(C)CCC(O)c1ccccc1 (stereo not drawn)	3%	/	-3%	-26%	1%	/	12%[46.1 µM]	8%
CNS(=O)(=O)c1cccc(C(=O)OC2CCOC2=O)c1 (stereo not drawn)	14%	/	-1%	/	0%	/	?	19%
O=C(Nc1ccon1)c1cccn(Cc2cccc(Cl)c2)c1=O	/	-7.0%	0%	-3%[46.1 µM]	/	-8%	/	/
Cc1ccc(OCc2nnc(SCC(=O)Nc3sc(C)c(C)c3C#N)n2C)cc1	-3%	-0.9%	0%	-3%	0%	-12%	?	-12%
COc1ccc(C2=NN(C(=O)COC(=O)c3ccc(S(C)(=O)=O)c([N+](=O)[O-])c3)C(c3ccco3)C2)cc1 (stereo not drawn)	/	/	25µM*	?	-1%	/	?	4%
O=C(NCc1cccs1)C1CC(=O)N(Cc2ccccc2)C1 (stereo not drawn)	/	/	2%	0%[46.1 µM]	10%	/	6%[46.1 µM]	12%
COc1cc(Nc2nc(-c3ccc(OC)c(OC)c3)nc3ccccc23)cc(OC)c1	/	-12%	0%	?	/	?	/	/
Cc1nc2ccccc2c(-c2ccccc2)c1C(=O)c1ccccc1	-8%	2.1%	-17%	?	-42%	-2%	-9%	13%
O=C(COc1ccc2c(-c3ccccc3)cc(=O)oc2c1)NCC(O)c1ccccc1 (stereo not drawn)	1%	/	-13%	/	3%	/	/	1%
CCOc1ccc(NC(=O)c2cc3c(-c4ccccc4F)nn(C)c3s2)cc1	/	0.2%	-16%	?	/	-7%	26%[46.1 µM]	/
CN1/C(=C\C(=O)c2cccc(S(=O)(=O)N3CCCCC3)c2)C(C)(C)c2ccccc21	14%	-0.6%	0%	-11%	8%	?	-6%	-2%
COc1ccc(CCc2ccc3cc(OC)ccc3n2)cc1	/	/	-10%	?	/	/	?	-26%
CCc1ccc(N(CC)c2ncnc3nc[nH]c23)cc1	-90%	-0.9%	-9%	?	1%	-13%	-3%	8%
O=C(Nc1ccc(Oc2nnc(-c3ccccc3)c3ccccc23)cc1)c1ccccc1	16%	-4.5%	?	3%	21%	-4%	?	-10%
CC(O)/C=C/C1OC(=O)CC1Nc1ccc(C=O)cc1 (stereo not drawn)	3%	/	-16%	/	1%	/	/	8%

# More results
SMILES	NS1 function inh	Cruzain Triton	StopGo reporter	LASV entry inh	SARS PLP yeast	Cruzain inh noDet	Marburg entry inh	RE007 growth inh
CN(C)CCN(Cc1cc2cc3c(cc2[nH]c1=O)OCO3)C(=S)NCc1ccco1	2%	/	-3%	-2%	0%	/	0%[46.1 µM]	0%
CN(C)CCCOC(=O)COc1ccc(C(C)(C)C)cc1	2%	-2.7%	4%	?	7%	18%	3%	4%
CC(C)C(NC(=O)c1ccc(C(C)(C)C)cc1)C(=O)Nc1cccc(S(N)(=O)=O)c1 (stereo not drawn)	-15%	/	?	-27%	-2%	/	-25%	17%
CC(C)(C)OC(=O)N1CCC(C(=O)N2CCC[C@H]2C(=O)O)CC1	6%	6.4%	-17%	10%	-16%	-1%	?	-9%
FC(F)(F)c1nnc(-c2ccccc2)nc1N1CCCC1	-3%	/	-2%	?	0%	/	9%[46.1 µM]	30%
O=C(NC(=S)NCCOCc1ccc(Cl)cc1)c1cccnc1	-4%	-4.5%	-40%	5%	27%	7%	?	?
COc1ccc(CCNC(=O)Nc2cccc([N+](=O)[O-])c2)cc1OC	-4%	/	-12%	/	-3%	/	/	-18%

# Quoted at random: four compounds from above.
SMILES	NS1 function inh	Cruzain Triton	StopGo reporter	LASV entry inh	SARS PLP yeast	Cruzain inh noDet	Marburg entry inh	RE007 growth inh
CN(C)CCN(Cc1cc2cc3c(cc2[nH]c1=O)OCO3)C(=S)NCc1ccco1	2%	/	-3%	-2%	0%	/	0%[46.1 µM]	0%
CC(C)(C)OC(=O)N1CCC(C(=O)N2CCC[C@H]2C(=O)O)CC1	6%	6.4%	-17%	10%	-16%	-1%	?	-9%
CN(C)CCCOC(=O)COc1ccc(C(C)(C)C)cc1	2%	-2.7%	4%	?	7%	18%	3%	4%
COc1ccc(CCNC(=O)Nc2cccc([N+](=O)[O-])c2)cc1OC	-4%	/	-12%	/	-3%	/	/	-18%
